HTT prom inh – inhibits huntingtin promoter activity; Potency, µM (titrated, usually from 57.5 µM), for the others: top-dose activity change, negative = inhibition, actives largely listed as inhibitors; 48,000 tested, 0.93% active; AID 1508623; HEK293 HTT promoter firefly luciferase reporter (activity 0% = vehicle and -100% = no light), 24 h; active = well fitted inhibition curve with a large enough effect; inconclusive = small, poorly fitted or top-dose-only effect; inactive = no such curve, though single readings can be large or run the other way; note: nearly all actives have a fitted effect of over 50% in size
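Quantitative HTS used concentration series of up to 57.5 uM final on HEK293 luciferase reporter cells, 24 h at 37 degrees C. Readout was Dual-Glo firefly luminescence.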
PMP22 txn – PMP22 gene transcription modulation; S16 Pmp22-F2sN Schwann cells (luciferase reporters placed in the Pmp22 gene), FLuc/NLuc coincidence luminescence, 24 h; Potency, µM (titrated, usually from 57.5 µM), for the others: at the highest dose activity change, negative = inhibition, usual class: inhibitors; 43,000 tested, 2% active; AID 1508649; active = clear falling dose curves in both reporters; inconclusive = both reporters move, but less clearly or upward; inactive = either reporter flat; the % is the NLuc reporter signal; note: % is set by controls: 0 for no effect and ±100 for the full control effect; some results filed as inactive show a strong effect at the top dose
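S16 Schwann cells carrying FLuc/NLuc coincidence reporter in the Pmp22 3' UTR treated with compound 24 h at 37C; FLuc then NLuc luminescence read sequentially by dual-luciferase reagents.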
Active calls of the source: *; u = inconclusive; x = no result given; [ ] = dose if it differs, or a comment. Potency is the fitted concentration of half-maximal effect.

Results follow in this order: PMP22 txn | HTT prom inh
CCOC(=O)c1ccc(N2C(=O)c3[nH]nc(-c4ccc(OCC)cc4)c3C2c2ccc(OC)cc2OC)cc1 (centres undefined)
  u | -25%
COc1ccc(CNC(=O)CCC(=O)N2CCSc3ccccc32)cc1
  -17% | -1%
COc1ccc(-c2cc(C(=O)NCCc3ccc(OC)c(OC)c3)c3ccccc3n2)cc1
  -19% | 9%
Cc1cc(C)c(S(=O)(=O)NCCc2csc3nc(-c4ccc(Cl)cc4)nn23)c(C)c1
  u | u
N#C/C(=C\c1ccc(F)cc1)C(=O)NCC1CCCO1 (centres undefined)
  -9% | 2%
CCOC(=O)CSc1ncnc2c1c(-c1ccccc1)cn2-c1ccc(OC)cc1
  -3% | 21%
Cc1cc(=O)n2nc(N3CCC(C(=O)NCc4ccccc4)CC3)sc2n1
  -1% | -6%
COc1cc(CCC(=O)NCc2ccc3c(c2)CCN3C(=O)c2cccc(C)c2)cc(OC)c1OC
  3% | -23%
CC(=O)c1ccc(NC(=O)c2ccc(-c3ccc(Cl)cc3)o2)cc1
  u | 13%
Cc1ccc(NC(=O)CN(C)S(=O)(=O)c2cnc[nH]2)cc1
  -3% | 9%
O=C(Cn1ncc2c3ccccc3n(Cc3ccc(F)cc3)c2c1=O)NCCC1=CCCCC1
  u | -6%
COc1ccc(N2C(=O)NC(NS(=O)(=O)c3ccc(NC(C)=O)cc3)(C(F)(F)F)C2=O)cc1 (centres undefined)
  15% | -19%[11.5 µM]
CC(CNC(=O)c1nnc(Cc2cccc(F)c2)o1)c1ccccc1 (centres undefined)
  -16% | -22%
COc1ccc(-c2cc(C)no2)cc1S(=O)(=O)NCc1ccco1
  u | -19%
O=C(CSc1nc(-c2cccc(F)c2)[nH]c1-c1ccccc1)Nc1ccc2c(c1)OCCO2
  u | u
CN(Cc1ccccc1)C(=O)c1nc(-c2ccc(Cl)cc2)n2c1CCCCC2
  -12% | -22%
Cc1ccc(CN2CCSc3ccc(C(=O)Nc4ccc(F)cc4F)cc32)cc1
  -29% | 10%
CCN(C(=O)Cn1nnc2sc3c(c2c1=O)CCC(C(C)(C)C)C3)c1cccc(C)c1 (centres undefined)
  2% | -14%
Cc1ccc(S(=O)Cc2nc(-c3ccc(C(=O)NC(C)c4ccccc4)cc3)oc2C)cc1 (centres undefined)
  u | u
CC(=O)N1CCc2c(sc3c2c(=O)n(CCc2ccccc2)c(=O)n3Cc2ccc(Cl)cc2)C1
  u | u

An excerpt from above in order of length of the SMILES, ascending:
Results follow in this order: PMP22 txn | HTT prom inh
Cc1ccc(NC(=O)CN(C)S(=O)(=O)c2cnc[nH]2)cc1
  -3% | 9%
O=C(Cn1ncc2c3ccccc3n(Cc3ccc(F)cc3)c2c1=O)NCCC1=CCCCC1
  u | -6%
CCN(C(=O)Cn1nnc2sc3c(c2c1=O)CCC(C(C)(C)C)C3)c1cccc(C)c1 (centres undefined)
  2% | -14%
CC(=O)N1CCc2c(sc3c2c(=O)n(CCc2ccccc2)c(=O)n3Cc2ccc(Cl)cc2)C1
  u | u

Additional structures follow:
Results follow in this order: PMP22 txn | HTT prom inh
COc1ccccc1N1CCN(C(=O)Cn2c(=O)n3nc(-c4cccc(F)c4)nc3c3ccccc32)CC1
  1% | 11%
CCOC(=O)c1ccc(N2C(=O)c3n[nH]c(-c4ccco4)c3C2c2ccc(O)cc2)cc1 (centres undefined)
  u | u
Cc1ccccc1OCC(=O)Nc1ccc2nc(SCC(=O)N3CCCC3)sc2c1
  -1% | 2%
COc1cc(NC(=O)CCS(=O)(=O)c2nc(-c3cccs3)cc(C(F)(F)F)n2)cc(OC)c1OC
  u | u
CCCCc1nn2c(=O)cc(COC(=O)C(C)Oc3ccccc3)nc2s1 (centres undefined)
  u | -2%
COc1cccc(NC(=O)Cn2c(=O)n(CCc3ccc(OC)c(OC)c3)c(=O)c3ccccc32)c1
  0% | -3%
CCOc1ccc(CNC(=O)C2=Cc3cc(Br)ccc3OC2)cc1OC
  -8% | u
Cc1sc(-c2cc3c([nH]c2=O)CC(c2ccccc2)CC3=O)nc1-c1ccc(Cl)cc1 (centres undefined)
  u | u
COc1ccc(-c2oc3c(CC=C(C)C)c(O)cc(O)c3c(=O)c2O)cc1
  x | 22%
Cc1ccc(CN(C(=O)COc2ccc([N+](=O)[O-])cc2)c2ccccn2)cc1
  u | u
Cc1oc(-c2ccc(Cl)cc2)nc1CS(=O)CC(=O)NCCc1ccccc1 (centres undefined)
  -2% | -21%
CN1c2ccc(Cl)cc2-c2nc(SCC(=O)Nc3cc(F)ccc3F)ncc2S1(=O)=O
  -7% | u
Cc1ccc2c(=O)cc(C(=O)Nc3c(C(=O)Nc4cccc(Cl)c4)oc4ccccc34)oc2c1
  1% | -9%
COc1ccccc1O
  x | 5%[116 µM]
COc1ccccc1Cc1nc2ccccc2nc1SCC(=O)NCc1ccc(C)cc1
  -17% | -6%
COc1ccccc1NC(=O)Cn1nnc(C(=O)NCc2cccs2)c1N
  1.2µM* | u
CCOc1ccc(CCNC(=O)CS(=O)(=O)Cc2nc(-c3ccc(OC)cc3)oc2C)cc1
  -27% | u
COc1ccccc1NC(=O)c1cc2c(-c3ccccc3)nn(-c3ccccc3)c2s1
  u | -8%
CCCCNC(=O)c1cc2c(=O)n3cccc(C)c3nc2s1
  u | 9%
COc1cccc(-c2nc(SCC(=O)NCc3ccco3)c3c(=O)n(C)c(=O)n(C)c3n2)c1
  4% | 15%
CCOc1ccc(Nc2nc(Nc3ccc(OCC)cc3)nc(N3CCOCC3)n2)cc1
  5% | -7%
O=C(CNC(=O)c1ccc(Cl)cc1)OCc1cc(=O)n2nc(C3CCCCC3)sc2n1
  3% | -17%
O=C(NC1CC(=O)N(c2ccccc2)C1)c1ccc(S(=O)(=O)N2CCCCC2)cc1 (centres undefined)
  41% | u
COc1cccc(N2CCN(C(=O)C3Cc4ccccc4N3C(C)=O)CC2)c1 (centres undefined)
  -3% | u
O=C(CN1CCCN(Cc2ccccc2Cl)S1(=O)=O)NCc1ccccc1
  -12% | -12%
COc1cc(OC)cc(N2C(=O)CSC23C(=O)Nc2ccccc23)c1 (centres undefined)
  -12% | -23%
Cc1ccc(Cl)cc1N1CCN(C(=O)CCCCCn2c(=O)[nH]c3ccccc3c2=O)CC1
  -2% | -3%
CNC1CCC(N(Cc2cccc(-c3ccncc3)c2)C(=O)c2sc3c(F)ccc(F)c3c2Cl)CC1 (centres undefined)
  x | -15%
Cc1cccc(Cn2cc(S(=O)(=O)c3ccc(Cl)cc3)c(=O)c3cc4c(cc32)OCO4)c1
  -18% | -27%
COc1cc(C2c3c(oc4ccccc4c3=O)C(=O)N2Cc2ccc(C)cc2)ccc1O (centres undefined)
  u | -9%
COC(=O)c1ccc(NC(=O)CN2CCN(c3ccc(Cl)cc3)CC2)cc1
  9% | -15%
Cc1ccc(C)c(N2CCN(C(=O)c3cc(S(=O)(=O)N4CCCC4)cn3C)CC2)c1
  -23% | -18%
CCN(Cc1ccccc1)C(=O)C1CCN(S(=O)(=O)c2c(C)noc2/C=C/c2ccc(C)cc2)CC1
  -6% | u
COc1ccc(-c2cn3c(n2)sc2cc(C(=O)NCCCN4CCCCC4)ccc23)cc1
  u | -22%
CCOC(=O)c1cccc(NC(=O)[C@@H](c2ccccc2)N2Cc3ccccc3C2=O)c1
  14% | -17%
Cc1ccc(NC(=O)c2cc3nc(-c4ccccc4)cc(-c4ccccc4)n3n2)cc1
  -6% | 4%
CC(=O)O[C@H]1CC[C@@]2(C)C(=CC[C@@H]3[C@@H]2CC[C@]2(C)C(C(C)=O)=CC[C@@H]32)C1
  x | -4%
COc1ccccc1CNC(=O)CCNS(=O)(=O)c1ccc2c(c1)oc(=O)n2C
  -14% | -5%
Cc1ccc(CNC(=O)Cn2cc(C(=O)c3ccc(Cl)cc3)c(=O)c3ccc(C)nc32)cc1
  u | 8%
CCc1ccc2occ(CC(=O)Nc3c(C(=O)Nc4ccc(Cl)cc4)oc4ccccc34)c2c1
  -16% | -11%
O=C(O)CSc1nnc(-c2ccc(O)cc2)o1
  -1% | -15%
CCOCCCn1c(=N)c(S(=O)(=O)c2ccc(C)cc2)cc2c(=O)n3cccc(C)c3nc21
  -4% | -1%
Cc1ccccc1OCCn1cc(C(=O)C2CCCCC2)c2ccccc21
  -3% | -3%
CCn1c(=O)cc(OCC(=O)NCc2ccc(F)cc2Cl)c2ccccc21
  -25% | -9%
COc1ccc(/C=C\c2onc(C)c2S(=O)(=O)N2CCC(C(=O)Nc3ccc(C)c(F)c3)CC2)cc1
  u | u
CCOC(=O)c1ccc(N2C(=O)c3n[nH]c(-c4cccs4)c3C2c2ccc(OCC)cc2)cc1 (centres undefined)
  u | u
Cc1ccc(CN(C(=O)Nc2cccc(Cl)c2)c2ccccn2)cc1
  u | -5%
CCOc1ccc(C(=O)c2oc3ccccc3c2NC(=O)Cc2coc3cc(C)cc(C)c23)cc1
  -12% | -21%
Cc1c(C(=O)Nc2cccc(C(F)(F)F)c2)oc2ccc(S(=O)(=O)N3CCC4(CC3)OCCO4)cc12
  u | -31%
CCOC(=O)c1ccc(O)c(O)c1
  x | 7%
Cc1nn(-c2ccccc2)c2c1N(CCCC(=O)NCc1ccc(N(C)C)cc1)C(=O)CS2
  u | u
COC(=O)NNC(=O)C1CCC(C)CC1 (centres undefined)
  0% | -18%
CCCCOc1ccc(C(C)NC(=O)c2cccc(Nc3nc4ccccc4n4nnnc34)c2)cc1 (centres undefined)
  5.3µM* | -4%
COc1ccccc1CN1CCN(C2CCN(C(=O)Nc3ccccc3)CC2)C(=O)C1=O
  u | 15%
Cc1ccccc1Nc1c(-c2cccnc2)nc2ccc(Cl)cn12
  -25% | -27%
Cc1nn(C(C)C(=O)Nc2ccc(C(C)C)cc2)c(=O)c2c1sc1ccccc12 (centres undefined)
  -4% | -8%
Cc1c(C(=O)O)oc2c1-c1nn(Cc3ccccc3Cl)cc1CC2
  -25% | -28%
CC(=O)SC[C@@H](Cc1ccccc1)C(=O)NCC(=O)OCc1ccccc1
  x | 4%
COc1ccc(OC)c(CCNC(=O)CN2C(=O)COc3ccc(S(=O)(=O)N4CCCCCC4)cc32)c1
  u | -18%
Cc1ccc(CNC(=O)CN2C(=O)CSc3ccc(S(=O)(=O)N(C)C)cc32)cc1
  -10% | -21%

As entered above:
`COc1ccccc1CN1CCN(C2CCN(C(=O)Nc3ccccc3)CC2)C(=O)C1=O` | HTT prom inh = 15%
`Cc1ccc(CN(C(=O)Nc2cccc(Cl)c2)c2ccccn2)cc1` | HTT prom inh = -5%

Following part:
Results follow in this order: PMP22 txn | HTT prom inh
CC[C@H]1OC(=O)[C@H](C)C(=O)[C@H](C)[C@@H](O[C@H]2O[C@H](C)C[C@H](N(C)C)[C@@H]2O)[C@](C)(OC)C[C@@H](C)C(=O)[C@H](C)[C@H]2N(CCCCn3cnc(-c4cccnc4)c3)C(=O)O[C@]12C
  x | -15%
O=C(CSc1nnc2scc(-c3ccc(Cl)cc3)n12)Nc1cccc(C(F)(F)F)c1
  u | -24%
O=C(COc1ccc(S(=O)(=O)NC2CCCCC2)cc1)Nc1ccc(C(F)(F)F)cc1
  -26% | -25%
COc1ccc(-c2nc3n(n2)C(c2ccccc2)C(C(=O)Nc2cccnc2)=C(C)N3)cc1 (centres undefined)
  69% | -26%
CCN(CC)S(=O)(=O)c1nnc(NC(=O)COc2ccc(Cl)cc2)s1
  -14% | -17%
CCSc1nc2ccccc2c(OCc2ccccc2Cl)c1C(=O)OC
  -29% | -17%
O=C(CN1c2ccc(Br)cc2-c2ccccc2S1(=O)=O)N1CCCCC1
  u | 78%[activator]
Cc1cc(Nc2cccc(Cl)c2)nc2ccc(NC(=O)c3cccc(N(C)C)c3)cc12
  -71% | 2%
COc1cccc(N2CCN(C3C(=O)c4ccccc4N3C(C)=O)CC2)c1 (centres undefined)
  -4% | -23%
CCc1nc2nc(C)cc(Nc3cccc(C)c3C)n2n1
  2% | -27%
COC(=O)c1scc(-c2ccccc2)c1S(=O)(=O)Nc1ccccc1
  34% | -19%
Cc1ccc(/C=C(\C#N)c2nc(-c3ccc(-c4ccccc4)cc3)cs2)cc1
  -12% | 12%
COc1ccc(-c2cc(C)no2)cc1S(=O)(=O)Nc1cccc(C(F)(F)F)c1
  16% | u
Oc1ccc(Cl)c2cccnc12
  x | -9%
COCCN1Cc2cccc(C(=O)Nc3ccc(Cl)cc3Cl)c2C1=O
  19µM* | -13%
Cc1ccc(Nc2cc(-c3ccccc3)nc(C)n2)cc1
  u | 38%[activator]
O=C(c1ccc2c(c1)CCN2S(=O)(=O)c1ccc(Cl)cc1)N1CCN(c2ccccc2)CC1
  7% | u
CCOc1cc2sc(N3CCC(C(=O)Nc4ccccc4Cl)CC3)nc2cc1Br
  -11% | 91%[activator]
Cc1c(C(=O)Nc2nc(-c3ccc(F)cc3)ns2)oc2ccc(Cl)cc12
  -1% | -2%
CCC(=O)N1CCc2cc(S(=O)(=O)NCCC(=O)Nc3cc(C)ccc3OC)ccc21
  0% | -26%
Nc1nnc(SCC(=O)Nc2ccc(Cl)cc2)s1
  -23% | -20%
Cc1ccc(N(CC(=O)Nc2ccc(Cl)cc2)S(=O)(=O)c2cccc3nonc23)cc1
  u | -14%

Assay outcomes deposited in PubChem BioAssay by National Center for Advancing Translational Sciences (NCATS).
